Bead autofluor – counter-screen for toxin protease inhibitors: compound fluorescence | compound autofluorescence counterscreen, microsphere flow cytometry; hits give high values | fluorescence intensity (no concentration beside the values) | actives 3.1% (n = 360,000);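 active means at least 3 SD above the mean of all compounds, about 16000 in these data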;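 further: 100 nL of 1 mM stock went into each well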
Sa ugtP lethal – growth inhibition of ugtP-null S. aureus, primary screen, RN4220 ugtP deletion, OD600. actives 0.54% (n = 330,000). 16 h; some inactives read as strong as hits. growth inhibition, % (concentration not given with the values);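 active means z-score under -3 and OD600 up to 0.15 on both plates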;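 further: plate controls were untreated wells for no effect and antibiotic for full effect; wells of about 80 µL received 100 nL stock; the first replicate is given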
Mtb hypoxia inh – PubChem AID 1159583. M. tuberculosis hypoxia-regulated fluorescent reporter, fluorescence. fluorescence inhibition, % (no concentration beside the values). actives 0.1% (n = 300,000);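 active means 35 to 45% if threefold the growth effect, above 45% if 1.5-fold the growth effect; inactive means the rest, general growth blockers included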;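 further: wells of about 50 µL received 100 nL stock; 0% = vehicle wells and 100% = reference inhibitor wells; whole bacteria with a GFP reporter of the hypoxia response; strong numbers were not always called active; many hits fall short of the cut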
BJeLR viability – MLPCN primary cell-based screen for lethality selective to Ras in HRASV12 cells; BJeLR (HRASV12) viability, CellTiter-Glo ATP luminescence, 48 h; reference of the scale not given here; inhibition, % (concentration not given with the values); actives 0.17% (n = 300,000); AID 1554, 2009;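 active means replicate mean above 50%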;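 further: 50 nL library stock added to about 25 µL; numbers are from one replicate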
PrP 5UTR inh – inhibition of PrP 5' UTR reporter expression | cell-based PrP 5' UTR mRNA reporter, plate reader | inhibition, % (concentration not given with the values) | actives 0.35% (n = 340,000);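 active means every replicate at 50% or more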;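 further: 0 = median of the neutral control wells; tested in H4 reporter cells; numbers are from one replicate; inactives centre near -14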
RN4220 kill – growth inhibition of S. aureus RN4220, primary screen, OD600; 16 h; inhibition, % (no concentration beside the values); actives 0.33% (n = 330,000); AID 1259311, 2017;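 active means z-score of -3 or lower and OD600 up to 0.18 on both plates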;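 further: plate controls were untreated cells for no effect and reference antibiotic for full effect; stock transfer was 100 nL into about 80 µL; one replicate is shown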
Mtb hypoxia inh growth – second read-out of Mtb hypoxia inh, no call of its own (marks repeat the call); growth inhibition, %; measured here: M. tuberculosis growth (absorbance);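 0% = vehicle and 100% = reference antibiotic; read after six days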
Numbers without * were called inactive; · = not tested or not shown.

item	compound	BJeLR viability	Sa ugtP lethal	Mtb hypoxia inh	PrP 5UTR inh
1	OC(C#CCN1CCOCC1)(c1ccccc1)C1CCCC1 (configuration not stated)	4.8	13.8	5.1	-10.1
2	CCc1cccc(CC)c1NC(=O)CSc1nc2ccc(N3C(=O)C4C5C=CC(C5)C4C3=O)cc2s1 (configuration not stated)	-3.8	-5.0	1.7	5.5
3	O=C(N/C(=C\c1cccc([N+](=O)[O-])c1)C(=O)N1CCOCC1)c1ccc([N+](=O)[O-])cc1	3.5	-0.7	6.7	-17.0
4	COCCN(C(=O)Nc1ccc(OC)cc1OC)C1CCN(C(C)C)CC1	3.9	10.2	8.2	-19.1
5	CCOC(=O)N1CCN(Cc2nc3c(c(=O)n(C)c(=O)n3C)n2CCCc2ccccc2)CC1	2.6	-2.9	-8.6	-14.4
6	CC(C)C(=O)NC(c1cccc([N+](=O)[O-])c1)c1c(O)ccc2ccccc12 (configuration not stated)	5.1	6.4	1.9	-26.3
7	COc1ccccc1-c1nnc2sc(COc3ccc(Cl)cc3Cl)nn12	-2.4	-12.7	-15.5	-0.6
8	CCOC(=O)c1cnn(-c2ccccc2)c1NC(=O)c1ccccc1C	0.4	-4.0	-10.8	-61.0

item	Mtb hypoxia inh growth	Bead autofluor	RN4220 kill
1	4.3	2614	21.0
2	12.8	4301	6.1
3	3.6	2770	4.5
4	0.3	9201	1.6
5	-7.8	20078*	1.3
6	-4.4	4997	4.5
7	-6.2	6462	-2.2
8	3.2	6875	-1.8

Next section:
item	compound	BJeLR viability	Sa ugtP lethal	Mtb hypoxia inh	PrP 5UTR inh
9	Cc1cc(C)c2c(N)c(C(=O)Nc3nccs3)sc2n1	-3.8	-7.6	14.2	36.6
10	c1ccc2oc(SCc3cn4ccccc4n3)nc2c1	0.3	5.5	6.5	-7.3
11	COc1ccc(S(=O)(=O)N2CCC(C(=O)NCCC(=O)Nc3cccc(Cl)c3)CC2)cc1	-9.2	3.8	-4.5	-8.8
12	CC(C)c1nc(C#N)c(N2CCOCC2)o1	2.1	-0.2	11.0	-6.3
13	O=C(NCC1CCS(=O)(=O)C1)NCC1CCS(=O)(=O)C1 (configuration not stated)	6.6	6.3	3.9	-22.8
14	O=C(CSc1nnc(-c2ccncc2)o1)Nc1cc(F)ccc1F	·	4.2	3.9	-80.5
15	O=C(Cn1ccc([N+](=O)[O-])n1)N1CCc2ccccc21	3.2	-0.6	17.5	-21.4
16	CN1CCN(CCNC(=O)Nc2ccccc2[N+](=O)[O-])CC1	-16.3	-1.2	5.3	-24.3

item	Mtb hypoxia inh growth	Bead autofluor	RN4220 kill
9	2.3	9361	6.1
10	12.6	10515	1.3
11	-0.4	6090	3.5
12	0.1	2646	-0.2
13	1.7	11370	3.3
14	0.1	3837	-2.4
15	7.3	4076	2.5
16	1.3	4012	1.6

Next section.
item	compound	BJeLR viability	Sa ugtP lethal	Mtb hypoxia inh	PrP 5UTR inh
17	Cc1csc(NC(=O)c2ccc(S(=O)(=O)N3CCCC3)cc2)n1	15.7	-7.4	-12.6	-17.5
18	Cc1ccc(Cn2ccc(NC(=O)c3noc4c3CCc3ccccc3-4)n2)cc1	-6.2	-6.8	7.1	-19.7
19	Cc1cccc2nc3ccccc3cc12	-4.5	-1.9	18.8	-70.8
20	CCOC(=O)c1nn(-c2ccc(C)c(C)c2)c(=O)c2c(N)scc12	8.2	-12.1	8.8	-11.2
21	C#CCCOC(=O)N1C2=NC(C(=O)OC)=C(C(=O)OC)[C@@H]3Nc4ccccc4[C@]23C[C@H]1C(=O)OC	-16.7	·	·	6.3
22	CCc1ccc2c(c1)Sc1ccccc1CC2N1CCN(C)CC1 (configuration not stated)	8.2	10.0	24.4	-2.9
23	Cc1nnc(SC(C)C(=O)NC2CCCc3ccccc32)n1-c1ccccc1 (configuration not stated)	2.4	6.8	7.6	-14.7
24	Cc1noc(C)c1-c1ccc2nc[nH]c(=O)c2c1	-6.5	3.4	4.3	-20.4

item	Mtb hypoxia inh growth	Bead autofluor	RN4220 kill
17	12.2	4276	-2.0
18	9.9	9778	1.9
19	20.4	3571	3.3
20	7.2	3941	3.6
21	·	3018	·
22	19.2	5385	-7.5
23	3.0	2041	3.0
24	4.0	3564	6.3

Entries of single compounds from above. Values in the order: BJeLR viability, Sa ugtP lethal, Mtb hypoxia inh, PrP 5UTR inh, Mtb hypoxia inh growth, Bead autofluor, RN4220 kill
`COc1ccc(S(=O)(=O)N2CCC(C(=O)NCCC(=O)Nc3cccc(Cl)c3)CC2)cc1` is listed as -9.2, 3.8, -4.5, -8.8, -0.4, 6090, 3.5
`Cc1ccc(Cn2ccc(NC(=O)c3noc4c3CCc3ccccc3-4)n2)cc1` is listed as -6.2, -6.8, 7.1, -19.7, 9.9, 9778, 1.9
`CN1CCN(CCNC(=O)Nc2ccccc2[N+](=O)[O-])CC1` is listed as -16.3, -1.2, 5.3, -24.3, 1.3, 4012, 1.6
`O=C(CSc1nnc(-c2ccncc2)o1)Nc1cc(F)ccc1F` is listed as ·, 4.2, 3.9, -80.5, 0.1, 3837, -2.4
`Cc1nnc(SC(C)C(=O)NC2CCCc3ccccc32)n1-c1ccccc1` (configuration not stated) is listed as 2.4, 6.8, 7.6, -14.7, 3.0, 2041, 3.0

(next part)
item	compound	BJeLR viability	Sa ugtP lethal	Mtb hypoxia inh	PrP 5UTR inh
25	CN1CCN(C(=O)/C(C#N)=C/c2ccc(OC(F)F)cc2)CC1	·	6.7	-4.6	-13.2
26	COc1ccc(Br)c(-c2nc(CS(=O)(=O)c3ccc(F)cc3)no2)c1	-10.0	11.7	3.3	-11.6
27	COc1cc(NC(C)=O)c2ncccc2c1NC(C)=O	10.7	3.9	2.8	-4.5
28	O=C(Nc1ccc(OC(F)(F)F)cc1)Oc1ccccc1N1CCCCC1	3.3	79.1	13.2	·
29	O=C(Nc1cccnc1)c1ccc(COc2ccccc2Br)cc1	1.3	-20.4	-9.8	-21.3
30	COc1cc2c(cc1OC)CN(C(=O)c1cc(Cl)nc(Cl)c1)CC2	-10.1	10.9	-5.3	-9.2
31	N#Cc1nc(Cc2ccccc2)oc1NCc1ccccc1	-7.1	-1.4	5.4	-15.7
32	CN(CCc1ccccn1)C(=O)c1ccc(OC2CCN(Cc3ccccn3)CC2)cc1	2.6	4.9	-1.4	-1.3

item	Mtb hypoxia inh growth	Bead autofluor	RN4220 kill
25	5.2	5304	2.1
26	-0.3	6395	8.4
27	8.6	3712	2.9
28	4.0	·	79.8
29	12.3	3825	-4.7
30	-3.5	3234	4.3
31	11.5	4905	4.9
32	-2.6	4437	2.4

More records.
item	compound	BJeLR viability	Sa ugtP lethal	Mtb hypoxia inh	PrP 5UTR inh
33	CCOC(=O)c1cnc(SCc2nc(N)nc(Nc3ccc(F)cc3)n2)nc1N	10.2	-15.4	-1.4	3.2
34	O=C(CCN1C(=O)c2ccccc2C1=O)NCCC1=CCCCC1	-5.5	2.3	4.1	6.9
35	Nc1ccc(S(=O)(=O)N2CCOCCOCCOCCOCCOCC2)cc1	1.1	2.2	4.5	-20.6
36	COC(=O)Cc1cc(C)cc2c(=O)cc(-c3ccoc3)oc12	-3.3	-5.1	0.6	·
37	Cc1ccc(N=Nc2c(N)nn3c(C)cc(C)nc23)cc1	1.2	-25.5	9.4	-27.3
38	CCOc1ccccc1N(C)C(=O)c1nn(-c2ccc(OC)cc2OC)c(=O)c2ccccc12	-14.3	6.7	9.8	-15.1
39	CCOc1ccc(S(=O)(=O)NCCC(=O)N2CCCN(C)CC2)cc1	-5.5	-0.8	-7.9	-16.8
40	CC(=NNC(=O)C1CCCC1)c1ccc(Cl)c(Cl)c1	·	-8.2	5.7	·

item	Mtb hypoxia inh growth	Bead autofluor	RN4220 kill
33	7.3	15660	-1.8
34	14.0	20662*	-1.2
35	1.8	3243	-1.3
36	-1.2	·	-0.9
37	-6.0	8605	20.5
38	2.3	2132	4.7
39	-2.9	5452	-3.7
40	4.9	·	0.4

Remaining list, next part
item	compound	BJeLR viability	Sa ugtP lethal	Mtb hypoxia inh	PrP 5UTR inh
41	CCOc1cc(C2C(C(=O)c3ccco3)=C(O)C(=O)N2CCc2ccccc2)ccc1O (configuration not stated)	8.3	16.4	·	-16.7
42	COc1ccc(N2C(=O)c3ccc(C(=O)Nc4ccccc4OC)cc3C2=O)cc1	-3.3	0.3	14.1	-13.3
43	COc1cccc(-c2nnc(Nc3nc4c(F)cccc4s3)o2)c1	10.2	12.3	15.6	-42.9
44	COC(=O)c1sc(S(=O)(=O)N2CCN(c3ccc(OC)cc3)CC2)c(C(=O)OC)c1C	-4.8	35.8	1.7	·
45	CCS(=O)(=O)c1nc(S(=O)(=O)c2ccc(Cl)cc2)c(NCc2ccco2)s1	1.1	2.5	-0.2	-13.4
46	COc1ccc(CNC(=O)C(c2ccco2)N(C(=O)Cc2cccs2)c2cccnc2)cc1 (configuration not stated)	3.1	-9.7	-8.2	-33.3
47	CCOC(=O)Cc1csc(NN=Cc2ccccc2OC)n1	·	13.1	4.4	·
48	CCn1cc(S(=O)(=O)NCCc2ccc(F)cc2)cn1	2.9	6.6	-3.3	-15.4

item	Mtb hypoxia inh growth	Bead autofluor	RN4220 kill
41	·	4866	11.8
42	3.7	2927	1.9
43	0.1	8251	5.9
44	9.0	10308	4.7
45	4.5	2559	4.6
46	-1.5	5350	6.5
47	0.0	·	4.0
48	-5.3	7071	5.1

Next section.
item	compound	BJeLR viability	Sa ugtP lethal	Mtb hypoxia inh	PrP 5UTR inh
49	Cc1nccn1CC(=O)NN=Cc1c[nH]c2ccccc12	·	6.8	1.9	·
50	Cn1nnc(NC(=O)c2ccc(C(C)(C)C)cc2)n1	-2.0	-10.9	9.9	-83.9
51	CN(C)C(=O)c1cc(C(=O)c2ccccc2C(F)(F)F)c[nH]1	1.3	-3.3	1.6	-27.6
52	CCCCOc1ccc(CSc2n[nH]c(C)n2)cc1	5.4	3.6	5.4	-55.4
53	Cc1ncc(CO)c(C=NNC(=S)Nc2ccc(Cl)c(Cl)c2)c1O	·	23.1	7.3	·
54	CC(C)C(=O)OCc1cn(-c2ccc(Cl)c(Cl)c2)nn1	-10.7	3.0	2.3	-7.8
55	C[C@H]1CN[C@H](CCO)/C1=C\c1ccccc1	·	4.5	-1.9	-8.2
56	COc1cc(C(CC(=O)N2CCCC2)c2c(OC)cc(OC)c3ccc(=O)oc23)cc(OC)c1OC (configuration not stated)	-10.3	3.1	5.6	-23.1
57	CC(C)(C)NC(=O)C1Cc2ccccc2CN1C(=O)Nc1ccccc1Cl (configuration not stated)	-3.5	7.2	12.3	-12.7
58	CCOc1ccc2cc(C3CC(c4ccco4)=NN3S(=O)(=O)c3ccccc3)c(Cl)nc2c1 (configuration not stated)	-1.8	-1.9	5.1	0.3
59	CC(C)c1ccc(S(=O)(=O)NCc2ccc3c(c2)OCO3)cc1	-6.7	5.5	10.1	-14.2

item	Mtb hypoxia inh growth	Bead autofluor	RN4220 kill
49	7.0	·	4.8
50	7.6	7594	5.2
51	4.1	2127	7.2
52	12.1	10088	12.9
53	4.6	·	46.8
54	-6.5	2613	5.0
55	3.4	3761	-0.4
56	4.5	3708	3.2
57	10.0	2890	5.7
58	8.7	2384	3.5
59	-0.6	4100	6.9

Screening results deposited in PubChem by several laboratories.
